# Bioassay records from PubChem.
# TRPML1 ag = activates the human TRPML1 channel; Q9GZU1; TRPML1-expressing cells, Ca2+ dye fluorescence, FDSS; host cell line not named in the record; reference of the full effect not given here; activation, % (test concentration not listed); 0.12% of 410,000 active; AID 624414; in the data active = activation above about 50%; inconclusive = about 30% to 50%; inactive = below about 30%; further: 0% is about no effect; the text of the record puts the active cut at 80%
#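 Calcium fluorescence on an FDSS kinetic reader gave the read-out. Tet-induced TRPML1-DL cells were plated overnight, dye-loaded (Ca8 with quencher, 45-90 min, room temperature, dark), then read 110 s after compound addition, and again 110 s after 4uM final 54-4 (EC80).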
# Six1-Eya2 blk = blocks human Six1 binding to Eya2. Q15475+O00167. AlphaScreen GST-Six1/His-Eya2 binding, biochemical; stronger effect = lower value; control for the full effect not named in the record. activity change, % (no concentration beside the values). 0.56% of 360,000 active. AID 651725; in the data active = activity change below about -65%; inconclusive = about -30% to -65%; inactive = above about -30%; further: on the % scale 0 is the no-effect control and ±100 the full control effect; compound concentration not given in the record
# Target sequence (O00167 whole entry, looked up): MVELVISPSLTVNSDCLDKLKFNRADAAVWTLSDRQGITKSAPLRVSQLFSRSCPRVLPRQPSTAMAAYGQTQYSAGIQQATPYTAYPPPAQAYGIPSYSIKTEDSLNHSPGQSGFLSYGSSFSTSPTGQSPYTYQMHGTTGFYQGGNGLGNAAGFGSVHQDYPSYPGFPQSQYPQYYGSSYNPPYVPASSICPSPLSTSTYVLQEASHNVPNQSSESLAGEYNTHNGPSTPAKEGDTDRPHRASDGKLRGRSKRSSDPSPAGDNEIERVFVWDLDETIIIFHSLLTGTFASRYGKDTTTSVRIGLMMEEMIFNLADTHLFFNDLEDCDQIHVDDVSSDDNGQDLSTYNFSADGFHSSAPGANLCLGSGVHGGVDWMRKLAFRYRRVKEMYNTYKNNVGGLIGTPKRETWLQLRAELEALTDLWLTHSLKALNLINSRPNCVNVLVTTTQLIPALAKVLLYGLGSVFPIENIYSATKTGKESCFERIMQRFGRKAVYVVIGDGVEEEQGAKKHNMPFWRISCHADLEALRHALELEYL
# Target sequence (Q15475 whole entry, looked up): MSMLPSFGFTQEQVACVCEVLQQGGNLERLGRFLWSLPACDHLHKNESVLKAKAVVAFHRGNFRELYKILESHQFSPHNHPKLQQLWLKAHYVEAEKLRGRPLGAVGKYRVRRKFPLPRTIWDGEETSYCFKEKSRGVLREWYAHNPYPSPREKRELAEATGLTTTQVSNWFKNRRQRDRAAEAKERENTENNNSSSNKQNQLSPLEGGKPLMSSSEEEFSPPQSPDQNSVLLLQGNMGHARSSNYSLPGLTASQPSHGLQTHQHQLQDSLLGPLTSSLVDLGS
#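 Compounds are tested against tagged Six1 and Eya2 proteins bridged by glutathione donor and nickel acceptor beads; after a one-hour incubation at 37 °C without light, AlphaScreen emission is recorded.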
# D2 agonist = human D2 receptor agonism in beta-arrestin assay; P14416; DiscoveRx PathHunter D2 beta-arrestin, luminescence, 90 min; 100% = 57 uM dopamine signal; activation, % (concentration not given with the values); 0.084% of 360,000 active; AID 624465; in the data active = activation above about 40%; inconclusive = about 15% to 40%; inactive = below about 15%; further: compound concentration not given in the record; the text of the record calls up to 30% inactive
#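 DiscoveRx PathHunter D2 beta-arrestin cells (2,100/well) attached overnight, then compound-stimulated 90 min at 37 C in HBSS/10 mM HEPES/0.1% Tween-20 buffer; beta-galactosidase complementation read by luminescence after 1 h at ambient temperature. Dopamine 57 uM final (EC100) as control.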
# D2 potentiator = positive allosteric modulators of human D2 dopamine receptor; P14416; DiscoveRx D2 beta-arrestin cells, luminescence, 90 min; 100% = 57 uM dopamine signal; potentiation, % (concentration not given with the values); 0.23% of 360,000 active; active = potentiation of 50% or more; inconclusive = 30% to 50%; inactive = 30% or less;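 further: compound concentration not given in the record; tested on top of an EC20 dose of dopamine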
#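 D2 cells co-treated with compound plus 50 nM dopamine (EC20) for 90 min at 37 deg C to detect potentiation. Beta-arrestin recruitment was read as enzyme-fragment luminescence after 1 h at ambient temperature. Full response was set by 57 uM dopamine.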
# TRPML1 inh = blocks the human TRPML1 channel | Q9GZU1 | TRPML1-inducible cells, Ca2+ dye fluorescence, FDSS; stronger effect = lower value; inhibition of EC80 agonist-evoked calcium signal | activity change, negative = inhibition, % (concentration not given with the values) | 0.02% of 390,000 active; in the data active means activity change below about -50%; inconclusive means about -30% to -50%; inactive means above about -30%;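 further: stimulus is agonist 54-4 at its EC80 concentration; on the % scale 0 is the no-effect control and ±100 the full control effect; compound concentration not given in the record; the text of the record puts the active cut at -80%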
#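 Calcium fluorescence in TRPML1-DL cells induced overnight with Tet: a 110 s read after compound pin addition, then a 110 s antagonist read after challenge with 54-4 at 4 uM final (EC80).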
# PINK1 expr mod = changes PINK1 expression; PINK1 immunofluorescence, high-content cytometry, 24 h; Potency, µM (titrated, usually from 76.6 µM), without a hit: top-dose activation (PINK1 increase), most hits filed as activators; 0.2% of 410,000 active; AID 624263; active = well fitted activation curve with a large enough effect; inconclusive = small, poorly fitted or top-dose-only effect; inactive = flat fitted curve, though single readings scatter; cell line not stated here;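 further: potency means the concentration at half of the fitted maximal effect; % of control where 0% means no effect; nearly all actives have a fitted effect of over 65% in size; a mitochondrial uncoupler was the plate control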
#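 Stable cell line, 250 cells/well, 12 h attachment; compounds pinned at 5 concentrations, 24 h; CCCP control. Fixed with nuclear dye, primary antibodies 12 h at 10 degrees C, secondary plus cell stain; laser-scanning cytometer read.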
# An asterisk follows results filed as active; . = no result given; [ ] = dose if it differs, or a comment.
# Start of the data: the first 4 entries (preview)
# Short forms – A = TRPML1 ag; B = Six1-Eya2 blk; C = D2 agonist; D = D2 potentiator; E = TRPML1 inh; F = PINK1 expr mod
1: COC(=O)c1cc(OC)c(OC)cc1NC(=O)c1cccc(OC)c1OC
  A: 0.2; B: -11; C: -1.0; D: 3; E: 6; F: 1.2%

2: COc1ccc(-n2nc(C(=O)NCCCN3CCOCC3)c3ccccc3c2=O)c(OC)c1
  A: -0.8; B: 0; C: -4.7; D: -34; E: -11; F: -0.1%

3: O=C(Nc1ncccc1Cl)C(Sc1ccccc1)c1ccccc1 (stereo not given)
  A: 2.3; B: 3; C: -1.8; D: 8; E: -6; F: -1.1%

4: Cc1ccc(N(CC(=O)NCc2ccc(F)cc2)C(=O)c2csnn2)cc1C
  A: 1.9; B: -4; C: -2.7; D: -2; E: 5; F: 1.0%

# The list itself, from the first entry:
# Short forms – A = TRPML1 ag; B = Six1-Eya2 blk; C = D2 agonist; D = D2 potentiator; E = TRPML1 inh; F = PINK1 expr mod
1: COC(=O)c1cc(OC)c(OC)cc1NC(=O)c1cccc(OC)c1OC
  A: 0.2; B: -11; C: -1.0; D: 3; E: 6; F: 1.2%

2: COc1ccc(-n2nc(C(=O)NCCCN3CCOCC3)c3ccccc3c2=O)c(OC)c1
  A: -0.8; B: 0; C: -4.7; D: -34; E: -11; F: -0.1%

3: O=C(Nc1ncccc1Cl)C(Sc1ccccc1)c1ccccc1 (stereo not given)
  A: 2.3; B: 3; C: -1.8; D: 8; E: -6; F: -1.1%

4: Cc1ccc(N(CC(=O)NCc2ccc(F)cc2)C(=O)c2csnn2)cc1C
  A: 1.9; B: -4; C: -2.7; D: -2; E: 5; F: 1.0%

5: O=C(CSc1nnnn1-c1ccc(O)cc1)Nc1cccc(S(=O)(=O)N2CCCC2)c1
  A: 0.4; B: -26; C: -1.2; D: -6; E: 4; F: -1.0%

6: Cc1sc(NC(=O)CSc2nnnn2C2CCCC2)c(C#N)c1C
  A: 1.7; B: 1; C: 2.2; D: -7; E: 14; F: 0.1%[38.3 µM]

7: COC(=O)c1ccc(NC(=O)CC2C(=O)N(c3cccc(C)c3)C(=O)N2Cc2ccco2)cc1 (stereo not given)
  A: -0.5; B: .; C: .; D: .; E: 10; F: 0.2%

8: COC(=O)c1sc(NC(=O)CC(C)C)c(C(=O)OC)c1C
  A: 0.9; B: 0; C: -9.3; D: -1; E: 12; F: 4.5%

9: CS(=O)(=O)N(CC(=O)NCc1ccncc1)c1ccc(Cl)c(Cl)c1
  A: 0.0; B: 1; C: -1.6; D: -5; E: -7; F: 8.7%[38.3 µM]

# Compound profiles, as listed above.
# Profile of O=C(CSc1nnnn1-c1ccc(O)cc1)Nc1cccc(S(=O)(=O)N2CCCC2)c1 → TRPML1 ag = 0.4; Six1-Eya2 blk = -26; D2 agonist = -1.2; D2 potentiator = -6; TRPML1 inh = 4; PINK1 expr mod = -1.0%
# Profile of O=C(Nc1ncccc1Cl)C(Sc1ccccc1)c1ccccc1 (stereo not given) → TRPML1 ag = 2.3; Six1-Eya2 blk = 3; D2 agonist = -1.8; D2 potentiator = 8; TRPML1 inh = -6; PINK1 expr mod = -1.1%

# Rows were taken by chance. About 1% of those tested had a hit in this group.
